HSD17B inh: HSD17B dehydrogenase inhibition; recombinant HSD17B10, NADH fluorescence kinetic; many of its hits are not listed in these tables; hit rate 7.6% among 75,000; Potency, µM (series often up to 57.1 µM), inactives show at the highest dose activity change, negative = inhibition, actives largely listed as inhibitors; AID 893; active = well fitted inhibition curve with a large enough effect; inconclusive = small, poorly fitted or top-dose-only effect; inactive = no such curve, though single readings can be large or run the other way;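 note: the protocol describes HADH2 (HSD17B10) and not the HSD17B4 of the title; nearly all actives have a fitted effect of over 70% in size; most hits overshoot -100% by far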
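20 nM HADH2, pH 9.0 Tris/Tween; cpd preinc 15 min RT; start w/ 1 mM NAD+ + 90 uM b-hydroxybutyryl-CoA; kinetic fluor ex360/em450 q30s x 4 min; delta last-first.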
Starred values were filed as active, the others as inactive; ? = inconclusive; [ ] = dose if it differs, or a comment. % is set by controls: 0 for no effect and ±100 for the full control effect; potency is the fitted concentration of half-maximal effect. An excerpt; rates above refer to the full screens.

SMILES	HSD17B inh
COc1ccc(CNc2nc(-c3ccccc3OC)nc3ccccc23)c(OC)c1	-2%
CC(C)C(NC(=O)C(Cc1ccc(O)cc1)NC(=O)C(NC(=O)C(F)(F)F)C(C)C)C(=O)O (stereo unspecified)	2%
COc1ccccc1OCC(=O)Nc1ccccn1	4%
CCOC(=O)C(C)Oc1ccc(C2NC(=O)NC(C)=C2C(=O)Nc2ccccc2C)cc1 (stereo unspecified)	?
Cc1ccc(C(=O)Nc2cnc3sc(C)nn3c2=O)cc1	0%
CCC(COC(=O)Nc1cccc(C)c1)NC(=O)OCC(C)C (stereo unspecified)	-5%
CCCCn1c(=O)[nH]c(=O)c2c1nc(-c1ccc(C#N)cc1)n2C1CCCC1	25µM*
COC(=O)C1=C(C)OC(N)=C(C#N)C1c1c(C)nn(-c2ccccc2)c1Cl (stereo unspecified)	-13%
O=C(Cc1cccs1)Nc1nc2ccccc2s1	-11%
Cc1cc(C(=O)Nc2sc3c(c2C#N)CCC(C(C)(C)C)C3)no1 (stereo unspecified)	-2%
O=C(c1cc(-c2cccs2)on1)N1CCN(c2ccccc2)CC1	-9%
CCC(CC)C(=O)NCc1ccc2c(c1)cc(C)n2C	6%
COC(=O)CNc1nc(-c2ccncc2)nc2ccccc12	-10%
CC(C)(C)NS(=O)(=O)c1cccc(S(=O)(=O)c2cccc(S(=O)(=O)NC(C)(C)C)c2)c1	-18%
Cc1ccc(NC2=NC(c3ccc(C)cc3)n3c(nc(C)cc3=O)N2)cc1 (stereo unspecified)	?
Cc1ccc(NC(=O)COC(=O)CCc2c[nH]c(=O)[nH]2)cc1	3%
O=C1[C@@H]2C(c3ccccc3Cl)=NO[C@@H]2C(=O)N1Cc1ccccc1	-4%
COc1ccc(CCNS(=O)(=O)c2ccc3c(c2)CC(C)N3C(C)=O)cc1OC (stereo unspecified)	4%
CCOC(=O)c1ccccc1NS(=O)(=O)c1ccccc1	1%
Cn1c(=O)n(Cc2ccc(Cl)cc2)c(=O)c2c1nc1n2CCN1Cc1ccco1	10%
COCc1[nH]nc2c1C(c1c(F)cccc1Cl)C(C#N)=C(N)O2 (stereo unspecified)	3%
CCN(CC(=O)NC1CCCCC1)S(=O)(=O)c1ccc(Cl)cc1	4%
COc1ccc(C(c2nnnn2Cc2cccs2)N2CCN(c3ccccc3F)CC2)cc1 (stereo unspecified)	9%
Cc1cc(OC2CCCCC2)nc(-c2ccccc2O)n1	-7%
O=C(CCN1CCN(CC(=O)Nc2ccccc2F)CC1)Nc1ccccc1F	-4%
Cc1ccc(-n2ncc(-c3nnc(SCC(=O)NC4CCCC4)o3)c2N)cc1C	5%
Nc1nc2c(c3c1c(=O)oc1ccccc13)CCCCC2	20µM*
CC(C)CO/N=C1/C[C@@H](O)[C@@H](O)[C@@H]2[C@@H]3C(=O)N(C[C@@H]4CCCO4)C(=O)[C@H]3CC[C@H]12	-3%[11.4 µM]
CN(C)c1cccc(NC(=O)Cc2ccc(F)cc2)c1	2%
CCn1c(Cc2ccccc2)nnc1SCC(=O)Nc1nccs1	1%
Cc1nnc(NCc2ccncc2)c2ccccc12	-5%
O=c1c2c([nH]c3ccccc13)CCCCCC2	-13%
Cc1cc(CN2CCOCC2)c(O)c(C2(C)CCCCC2)c1	3%
CC(=O)C1(C)CC2=C(CCCC2(C)C)CC1C (stereo unspecified)	5%
COc1cc(OC)c(C2C(C#N)=C(N)OC3=C2C(=O)CC(C)(C)C3)cc1OC (stereo unspecified)	9%
O=C(Nc1nc(-c2nc3ccccc3s2)cs1)C1CC1	?
O=C(N1CCN(c2ccc(F)cc2)CC1)C12CC3CC(CC(C3)C1)C2	7%
COc1ccc(Nc2nc3ccccc3nc2C)cc1	-1%
Cc1nc(NCCN2CCOCC2)c2nnn(Cc3ccccc3Cl)c2n1	9%
CCN(CC)C(=O)C1CCC(C)(C(=O)O)C1(C)C (stereo unspecified)	16%
CCSc1nnc(NC(=O)c2nc(-c3ccccc3)n(-c3ccccc3)n2)s1	-2%
COc1ccccc1CNC(=O)CCNC(=O)Cn1cnc2ccccc2c1=O	4%
CC(=O)N(c1ccc(Cl)cc1)c1c[nH]c2ccccc12	5%
CCCCCCn1c(CN2CCCC(C)C2)nc2c1c(=O)n(C)c(=O)n2C (stereo unspecified)	5%
CC(=O)OCC1OC(c2cc(C)cc(C)c2)C=CC1OC(C)=O (stereo unspecified)	8%[11.4 µM]
CCC(=O)Nc1c(C)cc(C)cc1Cl	-3%
COc1cccc(NC(=O)N(Cc2cc3cc(C)cc(C)c3[nH]c2=O)CC2COCCO2)c1 (stereo unspecified)	?
c1ccc(-n2nnnc2N2CCOCC2)cc1	5%
Cc1ccccc1N=C1NC(=O)CS1	3%
NC(=O)CC[C@@H](N)C(=O)O	8%

Sorted by molar mass (lowest first): 4 of the compounds above.
SMILES	HSD17B inh
c1ccc(-n2nnnc2N2CCOCC2)cc1	5%
CC(=O)N(c1ccc(Cl)cc1)c1c[nH]c2ccccc12	5%
COc1ccccc1CNC(=O)CCNC(=O)Cn1cnc2ccccc2c1=O	4%
COc1cccc(NC(=O)N(Cc2cc3cc(C)cc(C)c3[nH]c2=O)CC2COCCO2)c1 (stereo unspecified)	?

Following part
SMILES	HSD17B inh
Cn1c(=O)c(CCc2ccccc2)nc2cnc(Oc3ccccc3)nc21	-22%
CC(C)CN1CCc2nc(-c3ccccc3)c3c(c2CC1)COC(C)C3 (stereo unspecified)	2%[11.4 µM]
CCn1c(-c2ccc(OC)c(OC)c2)n[nH]c1=S	?
CO/N=C(/C)CCC(=O)OC[C@@H]1O[C@H](C#Cc2ccccc2)C=C[C@@H]1Oc1ccc(C)cc1	-4%[11.4 µM]
O=C(CCNc1cccc(Cl)c1)c1ccco1	-1%
Cc1ccc(-n2ncc3c(=O)[nH]c(SCC(=O)N4CCCCC4)nc32)cc1	5%
CCOCCn1c(CN2CCN(c3ccc(OC)cc3)CC2)nc2c1c(=O)n(C)c(=O)n2C	-3%
COc1cc2c(cc1OC)C(c1cc(OC)c(OC)c(OC)c1)NCC2 (stereo unspecified)	2%
CCCC(c1nnnn1Cc1ccc(F)cc1)N1CCN(C2CCCCC2)CC1 (stereo unspecified)	-1%
CCOC(=O)c1sc(NC(=O)c2c(C)noc2C)c(C(=O)OCC)c1C	7%
Cc1cccc(OCCSc2cc(C)nc(N)n2)c1	-14%
O=C(CCN1C(=O)c2ccccc2C1=O)Nc1ccc(F)cc1F	?
CCC(=O)Nc1ccc(OC)cc1OC	2%
CC1CCCN(S(=O)(=O)c2ccc(NC(=O)CN3CCN(C)CC3)cc2)C1 (stereo unspecified)	1%
COc1ccc(-n2cnnc2SCC(=O)N(C)C2CCS(=O)(=O)C2)cc1 (stereo unspecified)	0%
COC(=O)[C@@]1(Cc2ccc(OC)cc2)[C@H]2c3cc(C(=O)N4CCCC4)n(CCc4c[nH]c5cc(F)ccc45)c3C[C@H]2CN1C(=O)c1ccccc1	-4%
CCCCN1C2=NCCCN2c2cc(C)c(C)cc21	9%
Cc1noc(C)c1COC(=O)c1ccc2c(c1)OCO2	7%
CCOC(=O)C1CCCN(S(=O)(=O)c2ccc(Br)s2)C1 (stereo unspecified)	-1%
c1ccc(Cn2nnc3c(N4CCc5ccccc5C4)ncnc32)cc1	?

4 entries from above, as labelled records:
CCC(=O)Nc1ccc(OC)cc1OC
  HSD17B inh: 2%

CC1CCCN(S(=O)(=O)c2ccc(NC(=O)CN3CCN(C)CC3)cc2)C1 (stereo unspecified)
  HSD17B inh: 1%

COc1ccc(-n2cnnc2SCC(=O)N(C)C2CCS(=O)(=O)C2)cc1 (stereo unspecified)
  HSD17B inh: 0%

COC(=O)[C@@]1(Cc2ccc(OC)cc2)[C@H]2c3cc(C(=O)N4CCCC4)n(CCc4c[nH]c5cc(F)ccc45)c3C[C@H]2CN1C(=O)c1ccccc1
  HSD17B inh: -4%

The list continues.
SMILES	HSD17B inh
COc1ccc(CNC(=O)C2CCNCC2)cc1	-3%
Cc1nnc(SCC(=O)NCCN2C(=O)CSC2=O)s1	9%
COc1ccc(CCNC(=O)CSc2nnc(-c3cccc(F)c3)o2)cc1OC	18%
Cn1cccc1Cc1nnc(SCC(=O)N2CCN(c3ccccc3)CC2)n1-c1ccc(F)cc1	-3%
CCOC(=O)c1c(C)[nH]c(C)c1-c1ccccc1OC	1%
Cn1c(=O)c2c(nc(CN3CCc4ccccc4C3)n2CC(=O)c2ccccc2)n(C)c1=O	?
CC(C)CC(NC(=O)C1CCC(C)CC1)C(=O)Nc1cccnc1 (stereo unspecified)	7%
Cc1ccc(Cn2ncc3c(N4CCCC4)ncnc32)cc1	0%
COc1ccccc1C(=O)n1nc(-c2ccco2)nc1N	1%
O=C(NC1CCCCC1)N1CCCC(c2nc3ccccc3[nH]2)C1 (stereo unspecified)	-1%
CC(=O)Nc1nc2c(c3c1c(=O)oc1ccccc13)CCCCC2	-2%
CCSc1nc2ccccc2n1CC(N)=O	2%
Nc1ccccc1S[C@@H](C[N+](=O)[O-])c1ccc2c(c1)OCO2	?
C=CC[C@@H]1C=C[C@H](O/N=C(\C)CCN2CCCc3nc(C)c(C)cc32)[C@H](CO)O1	?
Cc1ccc(-c2nnc(SCC(=O)Nc3ccc4c(c3)OCCO4)n2N)cc1	-5%
CC(=O)c1cccc(NC(=O)N2CCCC2C(=O)NCc2ccc(C)cc2)c1 (stereo unspecified)	-2%
CC(=O)NC1=NC(=O)/C(=C/N2CCOCC2)S1	-11%
Oc1ccccc1-c1nnc(COc2ccc(Cl)cc2Cl)o1	-26%
O=C(Nc1cccnc1)c1cnc2ccccc2n1	-3%
CCN1CCN(S(=O)(=O)c2ccc(OC)c(Br)c2)CC1	-2%
CC1CCCCC1N=CC1=C(O)CC(C)(C)CC1=O (stereo unspecified)	3%
COc1ccccc1Nc1nnc(SCC(=O)N2CCCC2=O)s1	-1%
CCCCn1c(SCC(=O)NC(=O)NCc2ccco2)nc2cc(S(N)(=O)=O)ccc21	?
CCOC(=O)c1nnc(-c2ccccc2)o1	-1%
CC(=O)N1CCc2cc(S(=O)(=O)NCCC(=O)N3CCN(Cc4ccccc4)CC3)ccc21	14%
CC1Cc2cc(/C(O)=C3/C(=O)C(=O)N(CC4CCCO4)C3c3ccco3)ccc2O1 (stereo unspecified)	-1%
COc1cccc(C(=O)/C=C/Nc2cc(C)ccc2O)c1	-26%
O=C(NCc1ccco1)Oc1ccccc1	14%
Cn1nnnc1SCCOc1ccc(C#N)cc1	2%
CCCN(CCO)Cc1cccc(Cl)c1	3%
CCNC(=O)NC(=O)C(C)SCc1ccccc1C (stereo unspecified)	5%
CCOCC(=O)Nc1ccc2c(c1)OCCO2	-21%
CCCn1c(=O)c(C(=O)Nc2ccccc2C(=O)OCC)c(O)c2ccccc21	-4%
COc1cc(NS(=O)(=O)c2ccc(NC(=O)C3CCCO3)cc2)nc(OC)n1 (stereo unspecified)	0%
O=C(N1CCOCC1)C12CCC3CC(CC(C3)C1)C2	12%
CCc1ccccc1-n1c(-c2ccncc2)n[nH]c1=S	-3%
O=C(Nc1ccc(-c2noc(COc3ccccc3Cl)n2)cc1)c1ccco1	32µM*
O=C(CC(c1ccccc1)c1ccccc1)NCCO	?
COc1cc(C2CC(=O)Nc3ccccc3S2)cc(OC)c1OC (stereo unspecified)	5%
O=C1CCCC2=C1C(c1cccs1)n1nc(SCc3ccccc3)nc1N2 (stereo unspecified)	213%[activator]
Cn1cccc1C(=O)N1CCC2(CC1)CCN(c1ncccn1)CC2	-16%
COc1ccccc1C(=O)NCCc1nc2ccccc2[nH]1	-2%
COc1ccc(C2C(C(=O)c3cccs3)=C(O)C(=O)N2c2nnc(C)s2)cc1OC (stereo unspecified)	5%
Cc1c(C(=O)Nc2cnccn2)oc2ccccc12	-2%
CC(C)c1ccccc1N=C1SCCN1C1CCS(=O)(=O)C1 (stereo unspecified)	4%
O=C1CSC(c2ccccn2)N1Cc1cn2ccccc2n1 (stereo unspecified)	-2%
O=C(NCCc1ccccc1)C1CCN(S(=O)(=O)N2CCC3(CC2)OCCO3)CC1	-2%
O=C(Cn1c(=O)oc2cc(S(=O)(=O)N3CCCCCC3)ccc21)NC1CCCCCCC1	-7%
N#C/C(=C\NC(=S)c1ccncc1)c1nc2ccccc2s1	-3%[11.4 µM]
Cc1ccc(SC(C)c2nc(-c3ccncc3)no2)cc1 (stereo unspecified)	-4%

The list goes on:
SMILES	HSD17B inh
COc1ccccc1-c1cncnc1NCc1cccc(C)c1	-4%
CC1CCCCN1S(=O)(=O)c1ccc2c(c1)CCN2C(=O)C1CCC1 (stereo unspecified)	-7%
Cc1cc(NC(=O)CSc2nc3ccsc3c(=O)n2NC(=O)c2ccccc2)no1	8%
O=c1cc(-c2ccc(O)cc2)oc2cc(O)cc(O)c12	?
COC(=O)C1C(O)=C(C=NC2CCCCC2)C(=O)CC1(C)C (stereo unspecified)	0%
Nn1c(SC/C=C/c2ccccc2)nnc1-c1ccncc1	-3%
CC(C)C(=O)Nc1ccc(-c2nc3cccnc3o2)cc1	25µM*
c1ccc2nc(C3=NCCN3)cnc2c1	-15%
Cc1ccc(C2CC(C(F)(F)F)n3nc(C(=O)NCc4ccco4)cc3N2)cc1 (stereo unspecified)	4%
Cc1c(C(=O)O)oc2c1C(O)CCC2 (stereo unspecified)	-15%

Source: PubChem
